PrP UTR inh = inhibition of PrP 5' UTR reporter expression. cell-based PrP 5' UTR mRNA reporter, plate reader. inhibition, % (test concentration not listed). hit rate 0.35% among 340,000. AID 488862;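 active = every replicate at 50% or more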;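 note: 0 = median of the neutral control wells; tested in H4 reporter cells; numbers are from one replicate; inactives centre near -14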
BJeLR viability = kills HRASV12-expressing BJeLR cells | BJeLR (HRASV12) viability, CellTiter-Glo ATP luminescence, 48 h; reference of the scale not given here | inhibition, % (concentration not given with the values) | hit rate 0.17% among 300,000;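 active = replicate mean above 50%; inconclusive = above 50% but judged a plate artefact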;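 note: 50 nL library stock added to about 25 µL; numbers are from one replicate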
ugtP null kill = kills S. aureus RN4220 lacking UgtP. hit rate 0.54% among 330,000. AID 1259309. S. aureus RN4220 ugtP deletion, OD600 growth, 16 h; some inactives read as strong as hits. growth inhibition, % (no concentration beside the values);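 active = z-score under -3 and OD600 up to 0.15 on both plates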;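 note: plate controls were untreated wells for no effect and antibiotic for full effect; wells of about 80 µL received 100 nL stock; the first replicate is given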
RN4220 kill = kills Staphylococcus aureus RN4220. AID 1259311. inhibition, % (no concentration beside the values). S. aureus RN4220 growth, OD600, 16 h. hit rate 0.33% among 330,000;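 active = z-score of -3 or lower and OD600 up to 0.18 on both plates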;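 note: plate controls were untreated cells for no effect and reference antibiotic for full effect; stock transfer was 100 nL into about 80 µL; one replicate is shown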
Autofluor counter = compound fluorescence in toxin protease inhibitor counterscreen. compound autofluorescence counterscreen, microsphere flow cytometry; active compounds read high. hit rate 3.1% among 360,000. fluorescence intensity (no concentration beside the values);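 active = at least 3 SD above the mean of all compounds, about 16000 in these data; inconclusive = too few beads counted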;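 note: 100 nL of 1 mM stock went into each well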
Mtb hypoxia inh = Mtb hypoxia fluorescent reporter inhibition | M. tuberculosis hypoxia-regulated fluorescent reporter, fluorescence | fluorescence inhibition, % (no concentration beside the values) | hit rate 0.1% among 300,000;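 active = 35 to 45% if threefold the growth effect, above 45% if 1.5-fold the growth effect; inactive = the rest, general growth blockers included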;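 note: wells of about 50 µL received 100 nL stock; 0% = vehicle wells and 100% = reference inhibitor wells; whole bacteria with a GFP reporter of the hypoxia response; strong numbers were not always called active; many hits fall short of the cut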
Mtb hypoxia inh growth = also measured in Mtb hypoxia inh; calls as there; growth inhibition, %; measured here: M. tuberculosis growth (absorbance);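 0% = vehicle and 100% = reference antibiotic; read after six days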
Active calls of the source: *; ? = inconclusive; . = no result given; & = joins results of further samples.

No.	Structure	PrP UTR inh	BJeLR viability	ugtP null kill	RN4220 kill
1	COc1ccc(SCCC(=O)NCc2ccncc2)cc1	-21	4	2	3.5
2	N#CCC(=O)Nc1ccc(C(=O)NCCc2c[nH]c3ccccc23)cc1	-11	-7	5	2.7
3	CC(=O)COc1cc(C)cc2oc(=O)c(C)c(C)c12	-6	9	-5	-8.8
4	Cc1cccc(-n2c(C)nc3ccccc3c2=O)c1C	-8	-4	5	10
5	CCN(CC)S(=O)(=O)c1cccc(NC(=O)COC(=O)c2cccs2)c1	-12	6	7	-8.5
6	Cc1nc(NC2=NCN(CCCN3CCOCC3)CN2)nc2c(C)cccc12	-10	.	-3	1.9
7	CCCc1nc2c(c(=O)c3ccccc3n2C)c(=O)n1C1CCCCCC1	-6	-7	-12	6.8
8	Cc1cccc(C(=O)NN=Cc2ccc[nH]2)c1	.	.	2	5.3
9	COc1ccc(CNC(=O)CN(c2ccc(OC)cc2)S(=O)(=O)c2c(C)nn(C)c2C)cc1	-19	0	10	9.6
10	c1ccc2c(c1)NC1(CCCC1)n1c-2nc2ccccc21	-79	15	1	0.5
11	COc1ccc(C(C)NS(=O)(=O)Cc2ccccc2)cc1 (stereo unspecified)	-7	0	11	0.2
12	CCOc1ccc(NC(=O)c2ccc(NC(=O)Cc3n[nH]c(=O)c4ccccc34)cc2)cc1	-12	-10	6	7.5
13	COc1ccc(-n2nc(C(=O)NCC(=O)N3CCN(c4ccccc4F)CC3)c3ccccc3c2=O)cc1	-62	-7	2	2.8
14	CC(=O)Nc1ccc(NC(=O)C2CC(=O)N(c3cccc(Cl)c3)C2)cc1 (stereo unspecified)	-11	0	3	2.3
15	CCOc1ccc2nc(N(CCCN(C)C)C(=O)c3ccc(S(=O)(=O)N4CCCC4)cc3)sc2c1	-1	-3	5	2.1

No.	Autofluor counter	Mtb hypoxia inh	Mtb hypoxia inh growth
1	5789	-2	-1
2	5083	1	4
3	3051	-1	3
4	4770	18	4
5	4127	7	2
6	?	-66	-2
7	2551	14	5
8	.	11	-1
9	2387	-4	-3
10	12538	16	9
11	2977	9	3
12	5762	10	7
13	5983	-2	-3
14	4132	1	8
15	4805	6	4

From compound 1 up to 5, copied from above:
No.	Structure	PrP UTR inh	BJeLR viability	ugtP null kill	RN4220 kill
1	COc1ccc(SCCC(=O)NCc2ccncc2)cc1	-21	4	2	3.5
2	N#CCC(=O)Nc1ccc(C(=O)NCCc2c[nH]c3ccccc23)cc1	-11	-7	5	2.7
3	CC(=O)COc1cc(C)cc2oc(=O)c(C)c(C)c12	-6	9	-5	-8.8
4	Cc1cccc(-n2c(C)nc3ccccc3c2=O)c1C	-8	-4	5	10
5	CCN(CC)S(=O)(=O)c1cccc(NC(=O)COC(=O)c2cccs2)c1	-12	6	7	-8.5

No.	Autofluor counter	Mtb hypoxia inh	Mtb hypoxia inh growth
1	5789	-2	-1
2	5083	1	4
3	3051	-1	3
4	4770	18	4
5	4127	7	2

The listing continues.
No.	Structure	PrP UTR inh	BJeLR viability	ugtP null kill	RN4220 kill
16	CC(C)N(C(=O)c1ccc2nc(-c3ccccc3)c(-c3ccccc3)nc2c1)C(C)C	-34	-7	9	5.7
17	C[C@@H]1CN(c2c(F)c(F)c3c(=O)c(C(=O)O)cn(C4CC4)c3c2F)C[C@H](C)N1	8	16	97*	96*
18	Cc1nnc(SCC(=O)N2CC(C)OC(C)C2)n1-c1ccccc1 (stereo unspecified)	-10	-11	0	6.0
19	CCOCCCNc1nc(-c2ccccc2)nc2ccccc12	-11	-1	-1	1.1
20	CC1CCN(Cc2c(C(=O)NN=Cc3cccc(Cl)c3)nnn2-c2nonc2N)CC1	.	.	-16	3.9
21	CCOC(=O)Cn1nc(-c2ccc(C)cc2)c2ccccc2c1=O	-11	0	.	.
22	C=CCOc1ccc(/C=C/C(=O)OCC(=O)NCC2CCCO2)cc1 (stereo unspecified)	-18	9	7	2.0
23	c1ccc2[nH]c(NCc3ccc4c(c3)OCO4)nc2c1	-60	13	-2	2.8
24	CC1CCCCC1NC(=O)CCS(=O)(=O)c1cc2c(cc1Cl)NC(=O)CO2 (stereo unspecified)	-7	-5	4	1.1
25	NC(=O)c1ccccc1OCC(=O)NC12CC3CC(CC(C3)C1)C2	-36	0	-7	5.7
26	Cc1nnc(NC(=O)COc2ccc3c(C)cc(=O)oc3c2)s1	-4	-1	.	.
27	C=CCN(CC=C)C(=O)c1cc(Cl)ccc1[N+](=O)[O-]	-18	0	1	6.4
28	CC(=O)Nc1ccc(S(=O)(=O)Nc2nnc(Cc3ccc(Cl)cc3)s2)cc1	8	-13	6	-1.2
29	CN(C)S(=O)(=O)c1cc(NC(=O)C[N+]23CCN(CC2)CC3)ccc1Cl	-7	-30	0	1.9
30	Cc1ccnc(NC(=O)CCCc2c[nH]c3ccccc23)c1	-14	12	-1	2.1

No.	Autofluor counter	Mtb hypoxia inh	Mtb hypoxia inh growth
16	2606	13	10
17	3856	.	.
18	5932	-4	5
19	3141	10	7
20	.	6	5
21	3372	.	.
22	5554	5	7
23	2625	0	5
24	5509	7	-1
25	2557	.	.
26	3694	.	.
27	10388	10	4
28	4525	4	11
29	2474	4	6
30	5682	0	-4

No.	Structure	PrP UTR inh	BJeLR viability	ugtP null kill	RN4220 kill
31	S=P(NC1CCCCC1)(N1CC1)N1CC1	-16	2	2	2.1
32	CC(NC(=O)C1CCCN(S(=O)(=O)N2CCOCC2)C1)c1ccccc1 (stereo unspecified)	-5	2	2	2.9
33	Cc1cc(NCCCN2CCOCC2)n2nc(C)c(-c3ccc(F)cc3)c2n1	-5	2	3	2.5
34	COCCn1c(SC(C)C(=O)NCC2CCCO2)nc2scc(-c3ccc(F)cc3)c2c1=O (stereo unspecified)	-7	-3	2	1.5
35	CC(C)OCCCNC(=O)C1CCC(CNS(=O)(=O)c2ccc(Cl)cc2)CC1 (stereo unspecified)	2	-3	-2	-0.8
36	O=c1c2cc([N+](=O)[O-])cc([N+](=O)[O-])c2[nH]n1-c1ccccc1	-9	17	-4	0.0
37	Cc1cccc(CNC(=O)Cn2ccc3cc(S(=O)(=O)N4CCCC4)ccc32)c1	-30	-6	7	0.5
38	CC1(CNC(=O)C(=O)NCC2(C)CO2)CO1 (stereo unspecified)	-5	.	-6	5.0
39	COc1cccc(NC(=O)C(Sc2nnc(-c3ccncc3)n2-c2ccc(Cl)cc2)c2ccccc2)c1 (stereo unspecified)	-11	-15	5	4.9
40	Cc1onc(C(=O)NCc2cccs2)c1[N+](=O)[O-]	-1	14	10	-0.3
41	CC1CC(C)CN(S(=O)(=O)c2ccc3c(c2)oc(=O)n3CC(=O)N2CCOCC2)C1 (stereo unspecified)	12	-3	2	1.2
42	COc1ccccc1NC(=O)CSc1nnnn1C1CCCC1	4	-10	7	7.2
43	CCC(C)c1ccccc1NC(=O)CN(C)CC(=O)Nc1ccccc1SC (stereo unspecified)	-41	-4	-8	7.4
44	CN1CCN(N=Cc2ccc(N(c3ccccc3)c3ccccc3)cc2)CC1	.	.	-14	27
45	CCc1cc[n+](-c2nc([O-])sc2C=O)cc1	-28	-7	7	-9.1

No.	Autofluor counter	Mtb hypoxia inh	Mtb hypoxia inh growth
31	3844	11	-6
32	5009	2	-6
33	4729	6	9
34	?	10	-2
35	2018	2	10
36	3935	19	-1
37	5979	12	4
38	3851	20	8
39	2244	10	6
40	2176	-8	-5
41	4242	-3	-5
42	4627	-5	-3
43	3663	10	2
44	.	14	8
45	4850	.	.

No.	Structure	PrP UTR inh	BJeLR viability	ugtP null kill	RN4220 kill
46	CCCCNC(=O)C1CCN(c2nc(C)cc(C)n2)CC1	-12	-4	13	3.9
47	CCCn1c2ccccc2c2cc(C(=O)O)ccc21	-17	-5	.	.
48	CC(C)NC(=O)C(c1ccc(F)cc1)N(C(=O)CCC(=O)Nc1ccccn1)C1CCCCC1 (stereo unspecified)	-8	-4	8	5.1
49	Cc1c(CC(=O)NCCCCCC(=O)O)c(=O)oc2cc3c(cc12)CCC(C)(C)O3	-9	1	4	2.3
50	O=C(NC(=S)Nc1ccc(N2CCOCC2)cc1)c1ccco1	-48	2	16	6.4
51	O=C(Nc1ccccc1Cl)OC1CCCCC1	-45	-1	3	8.3
52	Cc1ccccc1NC(=O)/C=C1\SC(=O)NC1=O	-25	-4	.	.
53	O=C(Nc1cccc(Br)c1)c1ccc(CSc2ccccc2)cc1	-12	5	2	3.8
54	O=C(NCC1CCCO1)c1ccc2c(=O)n(Cc3ccc(Cl)cc3)c(=S)[nH]c2c1 (stereo unspecified)	-19	7	1	11
55	O=C(Oc1ccc(C(=S)N2CCOCC2)cc1)c1ccc([N+](=O)[O-])cc1[N+](=O)[O-]	-26	-2	7	2.3
56	CCN1CCN(CCCNc2ncnc3nc[nH]c23)CC1	-22	2	12	-1.3
57	O=C(O)CC(NC(=O)c1sc2ccccc2c1Cl)c1ccc(OC2CCCC2)cc1 (stereo unspecified)	-24	-10	-2	3.0
58	COc1ccc2nc(SCC(=O)NCc3ccccc3)[nH]c2c1	-13	-4	11	-2.3
59	CN(CC(=O)NCCc1ccc(S(N)(=O)=O)cc1)CC(=O)Nc1ccccc1Cl	-20	.	6	4.9
60	CC1CCCC(C)N1NC(=O)c1ccc(Cl)c(S(N)(=O)=O)c1 (stereo unspecified)	31&-8	-2	-4&2	1.2&7.3

No.	Autofluor counter	Mtb hypoxia inh	Mtb hypoxia inh growth
46	4399	12	12
47	5620	.	.
48	4454	0	-3
49	3432	9	-1
50	2135	18	8
51	3673	-5	7
52	2291	.	.
53	1952	7	4
54	3991	9	2
55	3905	4	9
56	4325	7	6
57	4758	6	0
58	3601	-2	-1
59	6062	3	7
60	5611	4&9	6&7

Just RN4220 kill, Mtb hypoxia inh growth and BJeLR viability (3 entries from above):
entry | Structure | RN4220 kill | Mtb hypoxia inh growth | BJeLR viability
51 | O=C(Nc1ccccc1Cl)OC1CCCCC1 | 8.3 | 7 | -1
55 | O=C(Oc1ccc(C(=S)N2CCOCC2)cc1)c1ccc([N+](=O)[O-])cc1[N+](=O)[O-] | 2.3 | 9 | -2
52 | Cc1ccccc1NC(=O)/C=C1\SC(=O)NC1=O | . | . | -4

A few values from the entries so far.
Autofluor counter result of compound 57 reads 4758
PrP UTR inh result of compound 55 reads -26
Mtb hypoxia inh growth result of compound 51 reads 7

Following part:
No.	Structure	PrP UTR inh	BJeLR viability	ugtP null kill	RN4220 kill
61	COc1cc(CNCc2cccs2)cc(Br)c1OC	-19	-3	-3	4.5
62	CCN(CC)c1ccc(NC(=O)c2cc(Cl)ccc2OC)cc1	-39	-11	-10	-2.5
63	CSc1sc(C)cc1C=O	-9	-3	7	-0.4
64	Cc1cccc(NC(=S)Nc2ccc(Br)cc2)c1	-31	4	1	-2.1
65	COc1ccccc1/C=C/C=NC1C(=O)N(c2ccccc2)[N+](C)=C1C (stereo unspecified)	-31	5	0	-1.8
66	CC(C)Oc1ccc(/C(O)=C2/C(=O)C(=O)N(CCN(C)C)C2c2ccco2)cc1 (stereo unspecified)	-10	11	1	1.5
67	Cn1c(N)c(S(=O)(=O)N2CCN(C(=O)c3ccco3)CC2)c(=O)n(C)c1=O	-3	-11	-2	3.9
68	Cc1noc(NS(=O)(=O)c2ccc(NC(=O)CCC3CCCCC3)cc2)c1C	-4	1	3	0.7

No.	Autofluor counter	Mtb hypoxia inh	Mtb hypoxia inh growth
61	3094	5	2
62	2607	.	.
63	2547	11	6
64	2573	14	9
65	3610	-1	12
66	2403	.	.
67	1953	2	-3
68	8958	7	14

Among those listed so far, these contain two or more sulfur atoms.
No.	Structure	PrP UTR inh	BJeLR viability	ugtP null kill	RN4220 kill
5	CCN(CC)S(=O)(=O)c1cccc(NC(=O)COC(=O)c2cccs2)c1	-12	6	7	-8.5
15	CCOc1ccc2nc(N(CCCN(C)C)C(=O)c3ccc(S(=O)(=O)N4CCCC4)cc3)sc2c1	-1	-3	5	2.1
28	CC(=O)Nc1ccc(S(=O)(=O)Nc2nnc(Cc3ccc(Cl)cc3)s2)cc1	8	-13	6	-1.2
34	COCCn1c(SC(C)C(=O)NCC2CCCO2)nc2scc(-c3ccc(F)cc3)c2c1=O (stereo unspecified)	-7	-3	2	1.5
63	CSc1sc(C)cc1C=O	-9	-3	7	-0.4

No.	Autofluor counter	Mtb hypoxia inh	Mtb hypoxia inh growth
5	4127	7	2
15	4805	6	4
28	4525	4	11
34	?	10	-2
63	2547	11	6
